# NS1 function inh: inhibitors of influenza NS1 protein function. Potency, µM (top dose mostly 46.1 µM), inactives show top-dose activity, positive = more growth. 0.4% of 270,000 active. AID 2326. S. cerevisiae slowed by influenza A NS1, growth recovery by OD600; also: actives are rising curves; nearly all actives have a fitted effect of over 50% in size
#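 Growth recovery, yeast-based: influenza A NS1 expressed in S. cerevisiae causes slow growth, and suppressors are detected by OD600. The parent strain without NS1 is used as positive control.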
# StopGo reporter: lowers the luciferase signal of an FMDV 2A StopGo reporter. AID 1159524. human cells with a luciferase reporter of 2A StopGo recoding; control for the full effect not named in the record. Potency, µM (highest dose often 57.9 µM), for the others: at the highest dose signal change, negative = less light. 1.2% of 410,000 active; active = well fitted falling curve with a large enough effect; inconclusive = small, poorly fitted or top-dose-only effect; inactive = no such curve, though single readings can be large or run the other way; tested in HEK293T cells; also: % is scaled to controls: 0 for no effect and ±100 for the full control effect; nearly all actives have a fitted effect of over 45% in size; luciferase light after 4 h
# Marburg entry inh: Marburg virus entry inhibition; Marburg virus pseudotyped entry inhibition, cell reporter; control for the full effect not named in the record; about a third of the inactives were read at about 46 µM; Potency, µM (series often up to 37.8 µM), for the others: at the top dose activity change, negative = inhibition, actives largely listed as inhibitors; 1.8% of 300,000 active; AID 540276; active = well fitted inhibition curve with a large enough effect; inconclusive = small, poorly fitted or top-dose-only effect, or effect the other way; inactive = flat fitted curve, though single readings scatter; tested in HEK293 cells; about a fifth of its hits are not listed in these tables; also: % is scaled to controls: 0 for no effect and ±100 for the full control effect; luciferase read-out
# Lassa entry inh: Lassa virus entry inhibition. Lassa virus pseudotype entry inhibition, cell reporter; control for the full effect not named in the record. 1.2% of 300,000 active. Potency, µM (top dose mostly 37.9 µM), for inactives: at the highest dose activity change, negative = inhibition, most hits filed as inhibitors; active means well fitted inhibition curve with a large enough effect; inconclusive means small, poorly fitted or top-dose-only effect, or effect the other way; inactive means flat fitted curve, though single readings scatter; tested in HEK293 cells; also: % is scaled to controls: 0 for no effect and ±100 for the full control effect; nearly all actives have a fitted effect of over 50% in size; luciferase read-out
# SARS PLpro yeast: inhibitors of SARS-CoV papain-like protease in yeast | S. cerevisiae expressing SARS-CoV PLpro, growth rescue; control for the full effect not named in the record | 0.19% of 330,000 active | Potency, µM (titrated, usually from 32.9 µM), for inactives: at the highest dose activity, positive = growth rescue; also: 0% is about no effect; nearly all actives have a fitted effect of over 55% in size; growth read by luminescence after 48 h
# Cruzain Triton: inhibitors of Trypanosoma cruzi cruzain with detergent; P25779; purified cruzain, Z-FR-AMC fluorescence, 0.01% Triton; Potency, µM, for the others: max response, negative = inhibition, usual class: inhibitors; 0.43% of 200,000 active; active = well fitted curve in the direction sought with a large enough effect; inconclusive = small, poorly fitted or top-dose-only effect, or another doubt; inactive = no such curve, though single readings can be large; an effect the other way counts as inactive or inconclusive;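 also: plate controls were neutral wells for no effect and buffer without enzyme for full effect; nearly all actives have a fitted effect of over 40% in size; top concentration of the series not given in the record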
# Target sequence (P25779 123-467 limits assumed): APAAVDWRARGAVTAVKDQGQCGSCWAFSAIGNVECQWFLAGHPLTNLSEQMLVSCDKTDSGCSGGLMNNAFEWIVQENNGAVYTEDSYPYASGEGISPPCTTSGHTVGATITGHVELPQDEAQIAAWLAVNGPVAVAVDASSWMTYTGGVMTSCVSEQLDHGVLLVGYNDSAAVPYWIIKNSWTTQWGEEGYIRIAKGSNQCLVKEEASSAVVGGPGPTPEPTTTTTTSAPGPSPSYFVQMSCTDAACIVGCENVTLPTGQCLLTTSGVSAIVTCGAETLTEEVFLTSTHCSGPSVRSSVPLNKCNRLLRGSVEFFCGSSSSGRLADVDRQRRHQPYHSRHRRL
#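 15 min RT preincubation of 1.5 nM cruzain with compound, then 2 uM Z-FR-AMC added; kinetic AMC fluorescence, 60 s delta. Triton X-100 0.01%, pH 5.5.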
# Cruzain noTriton: blocks cruzain activity in detergent-free assay | purified cruzain, Z-FR-AMC fluorescence, no detergent | 2.3% of 200,000 active | P25779 | Potency, µM, inactives show max response, negative = inhibition, actives largely listed as inhibitors; active = well fitted curve in the direction sought with a large enough effect; inconclusive = small, poorly fitted or top-dose-only effect, or another doubt; inactive = no such curve, though single readings can be large; an effect the other way counts as inactive or inconclusive;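 also: plate controls were enzyme without inhibitor for no effect and buffer without enzyme for full effect; nearly all actives have a fitted effect of over 40% in size; top concentration of the series not given in the record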
#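 Detergent-free condition (0.00005% Triton X-100) in acetate buffer pH 5.5 with DTT. 1.5 nM enzyme and compound were pre-mixed 15 min, then 2 uM Z-FR-AMC substrate added; reaction progress from fluorescence change between first and third reads (60 s).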
# RE007 growth inh: less growth of the S. pombe RE007 Vpr strain | Potency, µM (series often up to 92.2 µM), inactives show at the highest dose activity change, negative = less growth | AID 651644 | 0.21% of 360,000 active | S. pombe RE007 Vpr strain, BacTiter-Glo ATP luminescence, 24 h; control for the full effect not named in the record; active = well fitted falling curve with a large enough effect; inconclusive = small, poorly fitted or top-dose-only effect; inactive = no such curve, though single readings can be large or run the other way;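 also: % is scaled to controls: 0 for no effect and ±100 for the full control effect; nearly all actives have a fitted effect of over 50% in size; the assay follows cell death caused by Vpr and the record does not say whether a fall means rescue or toxicity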
#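 Fission yeast RE007 carrying one integrated HIV-1 vpr copy, seeded at OD 0.01 in PMG+AL medium with 23 nL pinned compound. Grown 24 h at 30 degrees; viability read by BacTiter-Glo luminescence after 5 min.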
# An asterisk follows results filed as active; u = inconclusive; x = not tested or not shown; & = joins results of further samples; [ ] = another dose, or the depositor's remark. Unless noted, calls follow the shape of the dose curve; as a rule, active means well fitted rising curve with a large enough effect; inconclusive means small, poorly fitted or top-dose-only effect; inactive means no such curve, though single readings can be large or run the other way. Potency is read from the fitted curve at half-maximal effect.
SMILES,NS1 function inh,StopGo reporter,Marburg entry inh,Lassa entry inh,SARS PLpro yeast,Cruzain Triton,Cruzain noTriton,RE007 growth inh
C=CCN(Cc1nc(-c2cc(OC)ccc2OC)oc1C)C1CCS(=O)(=O)C1 (stereo not given),5%,-8%,20%[46.1 µM],1%,-1%,x,x,-12%
O=C(O)c1cc(S(=O)(=O)N2CCCCC2)ccc1N1CCCCC1,x,-7%,2%,u,-3%,x,x,1%
Cc1ccc2[nH]c(=O)cc(C(=O)OC(C)C)c2c1,0%,-7%,-16%[46.1 µM],u,1%,x,x,6%
O=C(Nc1cc(S(=O)(=O)N2CCCCC2)ccc1O)c1ccccc1NS(=O)(=O)c1ccc(F)c(F)c1,8%,12%,1%,-13%,10%,-27%,4%,x
O=C(CCCn1cc([N+](=O)[O-])cn1)Nc1ccc2c(c1)OCO2,12%,25%,2%[46.1 µM],21%[46.1 µM],-1%,x,x,-2%
O=C(CSc1nc2ccsc2c(=O)n1Cc1ccc(C(=O)O)cc1)NCc1ccco1,u,9%,1%&-17%,3%&-1%,20%,-5.1%,-10%,6%
O=C(N/N=C/c1cn(-c2ccccc2)nc1-c1cc2ccccc2o1)c1ccncc1,4%,-11%,u,u,-23%,-11%,24%,-1%
Clc1cccc(NCc2nnc(SCc3ccccc3Cl)o2)c1,-67%,-12%,-22%,u,-29%,-1.9%,-3%,3%
Cc1ccc(NC(=O)[C@@H]2CCCN2C(=O)[C@@H]2Cc3ccccc3CN2)c(C)c1,-20%,0%,x,x,7%,x,x,0%
CCCN(CCC)C(=O)c1c(C)[nH]c(C(=O)OCC)c1C,0%,x,8%,1%,4%,0.1%,20%,x
CCOc1ccc(OCc2ccc(C(=O)N/N=C(\C)c3ccccn3)cc2)cc1,x,-18%,7.9µM*,11µM*,-2%,x,x,u
CCC(NC(=O)CCc1c(C)c2cc3c(-c4ccccc4)coc3cc2oc1=O)C(=O)O (stereo not given),u,-9%,x,x,0%,x,x,1%
CC1=C(C(=O)Nc2cc(Cl)ccc2C)C2(CCCCC2)OC1=O,x,-15%,-3%[46.1 µM],7%[46.1 µM],x,-3.9%,1%,x
Cc1nc(SCc2ccc(Br)cc2)[nH]c(=O)c1C,-32%,-28%,-23%,5%,-7%,3.0%,0%,4%
CC1(C)OC(=O)C(=CNNc2c(Cl)cc(Cl)cc2Cl)C(=O)O1,4%,29%,35%,5%,0%,x,x,0%
C/C(=C(\C#N)C(=O)NC1CCCCC1)N(C)C,-4%,-5%,-8%,19%,-4%,4.6%,11%,10%
Cc1ccc2oc(-c3cccc(NC(=O)C4CCCO4)c3)nc2c1 (stereo not given),-46%,x,14%,4%,-14%,-5.8%,u,u
Cc1ccn2c(=O)c(C(=O)NC3CCCCC3C)c(O)nc2c1 (stereo not given),x,47%[activator],u,1%,-1%,x,x,20%
CCOC(=O)C1=C(COC(=O)c2cccnc2Cl)NC(=O)NC1C (stereo not given),x,4%,2%[46.1 µM],-3%,0%,x,x,3%
O=C(OCCN1C(=O)c2cccc3c(N4CCOCC4)ccc(c23)C1=O)c1ccc(Cl)cc1,10%,-25%,u,u,u,-0.7%,-12%,2%
Clc1nnc2ccc(-c3ccccc3)nn12,-13%,9%,-22%,-17%,8%,-0.8%,-6%,4%
CCCCC(=O)Nc1ccc(S(=O)(=O)Nc2nccc(C)n2)cc1,2%,16%,x,x,0%,x,x,0%
Cc1ccsc1/C=N/NS(=O)(=O)c1ccc([N+](=O)[O-])cc1,-16%,72%[activator],1%,17%,-14%,-8.0%,-1%,-14%
COC(=O)c1sc2ccccc2c1NC(=O)c1ccc(S(=O)(=O)N2CCCCC2)cc1,-5%,-22%,3%,1%,-1%,-3.7%,-3%,7%
NC(=O)c1cc([N+](=O)[O-])ccc1N1CCCCC1,-7%,-17%,u,13%,1%,-4.1%,0%,1%
CC1CCCCN1C(=O)COC(=O)C1CCN(S(=O)(=O)c2ccc(Cl)c(C(F)(F)F)c2)CC1 (stereo not given),x,-26%,0%[46.1 µM],12%,0%,x,x,9%
CCCOc1ccc(/C=N/NC(=O)c2ccc(Cn3cc([N+](=O)[O-])cn3)o2)cc1,-5%,22%,-2%,-12%,5%,-5.1%,3%,-1%
N#Cc1nc(COc2ccc(Br)cc2)oc1N1CCN(Cc2ccccc2)CC1,-85%,u,-9%&-9%,-11%,-12%,-1.1%,1%,-10%
CCCCC(=O)NC(c1cccc([N+](=O)[O-])c1)c1c(OC(C)=O)ccc2ccccc12 (stereo not given),2%,u,-9%,-5%,-9%,-8.8%,-1%,28%
Cc1ccc2[nH]c(=O)c(CN(CCO)C(=O)NCc3ccccc3)cc2c1,-4%,-15%,16%,13%,0%,-3.9%,0%,5%
O=C(/C=C/c1ccc2c(c1)OCO2)c1c(O)n(CCC2=CCCCC2)c(=O)[nH]c1=O,5%,u,2%,-12%,-12%,-6.3%,u,-12%
O=C(CC1NC(=O)NC1=O)Nc1cccc2ccccc12 (stereo not given),-4%,-4%,u,-1%,11%,-0.3%,3%,1%
CCCCCOc1ccc(CSC2=NCCN2)cc1[N+](=O)[O-],-30%,-7%,-35%,4%,-14%,-2.2%,1%,-30%
CCc1nc(SCc2ccccn2)c2c(=O)n(C)c(=O)n(C)c2n1,-16%,0%,x,x,3%,-3.5%,0%,-7%
COc1ccc(S(=O)(=O)N2CCN(Cc3ccc4c(c3)OCO4)CC2)cc1,-2%,-14%,-18%[46.1 µM],3%[46.1 µM],0%,x,x,-2%
COc1ccc(S(=O)(=O)N2CCSCC2)cc1C(N)=O,-19%,-12%,11%[46.1 µM],-1%[46.1 µM],-6%,x,x,2%
Cc1ccc(NC(=O)CSCC(=O)N=c2sccn2C)cc1,x,3%,-11%,9%,4%,x,x,5%
Cc1ccc(S(=O)(=O)N2CCCC2=O)c(C)c1N(C)S(C)(=O)=O,1%,-13%,-3%,16%,3%,x,x,-8%
COC(=O)c1ccc(Cl)c(-c2ccc(/C=N/NC(=O)Nc3ccccc3)o2)c1,1%,-35%,5%,2%,4%,-6.7%,u,17%
CCOc1cccc(NC(=O)CSc2sc3c(O)cc(=O)[nH]c3c2C#N)c1,u,-6%,0%[46.1 µM],2%,9%,x,x,-1%

# Brought forward from above: two entries, then new ones.
SMILES,NS1 function inh,StopGo reporter,Marburg entry inh,Lassa entry inh,SARS PLpro yeast,Cruzain Triton,Cruzain noTriton,RE007 growth inh
COC(=O)c1ccc(Cl)c(-c2ccc(/C=N/NC(=O)Nc3ccccc3)o2)c1,1%,-35%,5%,2%,4%,-6.7%,u,17%
CCOc1cccc(NC(=O)CSc2sc3c(O)cc(=O)[nH]c3c2C#N)c1,u,-6%,0%[46.1 µM],2%,9%,x,x,-1%
Cc1ccc(C(C)(C)C)c(SCC(=O)Nc2nnc(C)s2)c1,4%,-12%,7.1µM*,7.1µM*,0%,x,x,7%
COC(=O)c1[nH]c2cccc(OC)c2c1NC(=O)CN1CC(C)OC(C)C1 (stereo not given),2%,-14%,10%,-12%,3%,-5.2%,0%,-13%
NS(=O)(=O)c1cccc(NC(=O)c2ccno2)c1,6%,-11%,x,x,1%,x,x,6%
NS(=O)(=O)c1ccc(NC(=O)CSc2nc3ccccc3nc2N2CCOCC2)cc1,2%,-22%,x,x,4%,x,x,14%
O=C(Nc1ccccc1F)N1CCC(NC(=O)C23CC4CC(CC(C4)C2)C3)CC1,-5%,-4%,0%[46.1 µM],1%[46.1 µM],-4%,x,x,-6%
CC(=O)Nc1ccc(-c2cc(-c3ccc(NC(C)=O)cc3)nc(-c3ccc(NC(C)=O)cc3)n2)cc1,0%,-14%,7%,-1%,19%,u,32µM*,9%
N/C(=N\OC(=O)Cc1cccs1)c1cccc([N+](=O)[O-])c1,4%,18%,21%,u,-10%,-0.4%,0%,-14%
CN1CCN(S(=O)(=O)c2cc([N+](=O)[O-])ccc2N2CCCCCC2)CC1,u,0%,-13%,-18%,5%,-6.8%,0%,-14%
Cc1ccc(-c2nn(CC(=O)NCc3ccccc3)c3c2cnc2ccc(F)cc23)cc1C,x,1%,x,10%[46.1 µM],x,0.3%,-8%,x
CCS(=O)(=O)c1ccc2c(c1)N(S(C)(=O)=O)CC(C(=O)NC1CC1)O2 (stereo not given),17%,-3%,19%,-7%,-2%,1.1%,-5%,1%
O=c1c(Cl)c(Cl)cnn1Cc1nnc(-c2ccccc2Br)o1,x,u,u,-17%[46.1 µM],-11%,x,x,4%
Fc1ccccc1Nc1nc(Cl)nc(Cl)n1,x,-5%,-6%,-5%,-5%,x,x,3%
CCN(CC)C(=O)Cn1nnc2sc(-c3ccccc3)cc2c1=O,x,15%,2%[46.1 µM],15%[46.1 µM],x,-7.9%,10%,x
COC(=O)c1ccc(NC(=S)NC2CCc3ccccc32)cc1 (stereo not given),1%,15%,4%[46.1 µM],-4%,-2%,x,x,1%
S=C1N(c2ccccc2)CN(CCN2CCOCC2)CN1c1ccccc1,12%,8%,u,u,3%,x,x,7%
CN1C(=O)/C(=C/c2cc3c(cc2Br)OCO3)NC1=S,x,-21%,u,4%[46.1 µM],1%,x,x,-13%
COc1ccccc1CC(=O)Nc1ccc2nc(N3CCC(C)CC3)cc(C)c2c1,x,0%,-26%[46.1 µM],u,x,-1.7%,7%,x
COc1ccc(-n2c(=O)c3c(c4cc(OC)ccc4n3C)n(CC(=O)NCC3CCCO3)c2=O)cc1 (stereo not given),x,27%,x,5%[46.1 µM],x,0.0%,-2%,x
O=[N+]([O-])c1cc(S(=O)(=O)C(F)(F)F)ccc1N1CCN(c2ccccc2)CC1,29%,u,u,u,-4%,-7.5%,3%,-15%
CC(=O)c1c(C)[nH]c(C(=O)Nc2cccc3ccccc23)c1C,-9%,8%,4%[46.1 µM],-13%[46.1 µM],-5%,x,x,-13%
O=c1c2cc3c(nc2ncn1Cc1ccccc1F)CCCC3,x,21%,x,u,x,-1.8%,3%,x
Cc1snc(S(=O)(=O)Cc2ccccc2Cl)c1C#N,-12%,-2%,-15%,-6%,-1%,4.4%,9%,16%

# Screens (PubChem)
